Sfp inh: blocks B. subtilis Sfp PPTase activity. Q9F4F7. Biochemical Sfp PPTase activity, qHTS. Potency, µM, for inactives: max response, negative = inhibition, usual class: inhibitors. hit rate 3.5% among 310,000. AID 1490; active = well fitted inhibition curve with a large enough effect; inconclusive = small, poorly fitted or top-dose-only effect, or another doubt; inactive = no such curve, though single readings can be large or run the other way;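 note: the enzyme is Sfp with the accession as filed and its product quenches rhodamine fluorescence; potency is the fitted concentration of half-maximal effect; 0% = enzyme reaction without inhibitor and -100% = no enzyme wells; top concentration of the series not given in the record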
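Step 1, compound plus 15 nM Sfp-PPTase, 15 min, room temperature. Step 2, add rhodamine-CoA (5 uM) and BHQ-2-YbbR (12.5 uM). Step 3, read 525/598 nm fluorescence at 0 and 30 min.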
Menin-MLL FL inh: displaces fluorescein MLL peptide from human menin; Fluorescence polarization, fluorescein-MLL peptide displacement from menin; FP activity change, % at 61.4 µM; 290,000 tested, under 10 active; inconclusive = falling polarisation curve, or a change in total fluorescence; inactive = total fluorescence flat and polarisation flat or rising; no compound was filed as active; the % refers to the polarisation; negative = inhibition;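 note: % of control where 0% means no effect; inhibitors lower the polarisation; unlabelled MLL peptide was the positive control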
ClpP mod: qHTS Assay for Activators of ClpP; AID 651965, 2013; hit rate 1.9% among 340,000; Potency, µM (series often up to 57.5 µM), inactives show at the top dose activity change, negative = active; purified B. subtilis ClpP, FRET peptide cleavage, 20 min; active = well fitted falling curve with a large enough effect; inconclusive = small, poorly fitted or top-dose-only effect; inactive = no such curve, though single readings can be large or run the other way; note: potency is the fitted concentration of half-maximal effect; the source files actives as falling curves though it sought activators and does not explain the sign; nearly all actives have a fitted effect of over 65% in size; many hits overshoot -100%
Target sequence (P80244 whole entry, looked up): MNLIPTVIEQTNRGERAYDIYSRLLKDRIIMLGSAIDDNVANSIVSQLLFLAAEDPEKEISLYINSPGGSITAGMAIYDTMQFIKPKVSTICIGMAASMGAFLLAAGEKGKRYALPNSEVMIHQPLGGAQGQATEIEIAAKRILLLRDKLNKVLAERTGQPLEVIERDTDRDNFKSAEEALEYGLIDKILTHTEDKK
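Purified B. subtilis ClpP, 10 microg/mL final in Tris/HCl pH8 with KCl, BSA, glycerol and Tween-20, cleaved an Abz/nitrotyrosine-quenched decapeptide. Fluorescence (ex 320, em 430) was read at 0 and 20 min at room temperature. Delta was normalized to 5.8 microM ADEP and DMSO/no-enzyme controls.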
CtBP-E1A inh: blocks the CtBP interaction with E1A; AlphaScreen GST-E1A/His-CtBP binding, 1536-well; stronger effect = lower value; control for the full effect not named in the record; activity change, % (test concentration not listed); hit rate 0.49% among 340,000; AID 651724; in the data active means activity change below about -65%; inconclusive means about -30% to -65%; inactive means above about -30%; note: % is set by controls: 0 for no effect and ±100 for the full control effect; compound concentration not given in the record
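Protein mix (5X: 125 nM each GST-E1A, His-CtBP) was incubated with pinned compound 2 h at 37 deg C in dark, in 50 mM Tris pH 8.0 buffer with 300 mM NaCl. Glutathione donor and nickel acceptor beads followed; AlphaScreen signal read after 1 h.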
TRPV1 potentiator: enhances activation of the human vanilloid receptor TRPV1. potentiation, % at 8.33 µM. Q8NER1. AID 540277. hit rate 0.02% among 320,000. TRPV1-expressing cells, Fluo-8 calcium influx, capsaicin EC20 potentiation; host cell line not named in the record; control for the full effect not named in the record; active means potentiation above 80%; inconclusive means 30% to 80%; inactive means below 30%; note: 0% is about no effect
Target sequence (Q8NER1 whole entry, looked up): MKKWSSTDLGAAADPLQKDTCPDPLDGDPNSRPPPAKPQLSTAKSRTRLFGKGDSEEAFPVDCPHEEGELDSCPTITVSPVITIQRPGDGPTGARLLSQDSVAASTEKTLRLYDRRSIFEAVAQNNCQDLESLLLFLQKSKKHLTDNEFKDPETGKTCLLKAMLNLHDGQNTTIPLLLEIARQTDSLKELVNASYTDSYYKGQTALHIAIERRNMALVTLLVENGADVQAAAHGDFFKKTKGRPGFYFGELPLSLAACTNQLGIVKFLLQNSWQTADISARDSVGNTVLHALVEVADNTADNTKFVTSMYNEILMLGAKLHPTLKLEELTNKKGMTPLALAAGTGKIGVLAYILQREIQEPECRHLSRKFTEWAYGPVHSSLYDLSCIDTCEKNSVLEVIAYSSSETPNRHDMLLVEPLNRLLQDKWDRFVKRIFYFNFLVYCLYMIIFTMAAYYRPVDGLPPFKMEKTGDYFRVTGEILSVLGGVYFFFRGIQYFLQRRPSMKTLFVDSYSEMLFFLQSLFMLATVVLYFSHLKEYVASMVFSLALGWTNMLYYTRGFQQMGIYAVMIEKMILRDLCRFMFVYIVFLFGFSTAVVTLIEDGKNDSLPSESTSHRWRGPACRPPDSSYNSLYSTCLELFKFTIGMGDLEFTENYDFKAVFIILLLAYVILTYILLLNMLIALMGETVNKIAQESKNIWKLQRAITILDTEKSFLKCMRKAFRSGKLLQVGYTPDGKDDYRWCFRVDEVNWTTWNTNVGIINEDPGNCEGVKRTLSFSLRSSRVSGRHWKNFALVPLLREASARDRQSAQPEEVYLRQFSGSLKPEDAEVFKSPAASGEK
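TRPV1-expressing cells were cultured overnight at 35.5C and loaded with Fluo-8 calcium dye for 40 to 90 min at room temperature. After a 10 s baseline, compound was added and calcium influx was read kinetically for 3 min (ex 480/em 520 nm).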
gsp agonist: gsp mutant agonism; gsp mutant cells, cAMP HTRF, 30 min; control for the full effect not named in the record; Potency, µM (doses to about 76.9 µM), for inactives: top-dose activation (cAMP increase), actives largely listed as activators; hit rate 0.13% among 340,000; AID 624287; active = well fitted activation curve with a large enough effect; inconclusive = small, poorly fitted or top-dose-only effect, or another doubt; inactive = no such curve, though single readings can be large or run the other way; cell line not stated here;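 note: phosphodiesterase inhibitor Ro 20-1724 added with compounds to block cAMP breakdown; potency is the fitted concentration of half-maximal effect; nearly all actives have a fitted effect of over 60% in size; about a fifth of the inactives were tested at one dose only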
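Cells in DMEM/10% FBS with G418 were pretreated with compounds in DMSO plus […] (300 uM stock) for 30 min at 37C. cAMP was measured by HTRF (cAMP-d2 plus anti-cAMP antibody-K) after 30 min at room temperature.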
gsp antag: gsp mutant antagonism; gsp-mutant cells, cAMP HTRF, 30 min; control for the full effect not named in the record; Potency, µM (series often up to 76.9 µM), without a hit: at the top dose activity change, negative = inhibition, actives largely listed as inhibitors; hit rate 0.4% among 340,000; active = falling curve of any shape with a large fitted effect; inconclusive = falling curve, mostly with a smaller effect; inactive = flat or rising curve; cell line not stated here;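 note: intracellular cAMP measured with PDE inhibitor Ro 20-1724 present during compound exposure; potency is the fitted concentration of half-maximal effect; % is set by controls: 0 for no effect and ±100 for the full control effect; nearly all actives have a fitted effect of over 65% in size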
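Cells, 2000/well, grown 16–24 h in DMEM 10% FBS with 0.5 mg/ml G418, then compounds plus […] (300 uM addition stock), 30 min at 37C. cAMP read by HTRF (cAMP-d2 and anti-cAMP antibody-K in lysis buffer) after 30 min RT.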
Active calls of the source: *; ? = inconclusive; . = not tested or not shown; & = joins results of further samples; [ ] = another dose, or the depositor's remark. An unsorted share of the library; any-hit rate near 5.3%.

SMILES	Sfp inh	Menin-MLL FL inh	ClpP mod	CtBP-E1A inh	TRPV1 potentiator	gsp agonist	gsp antag
CCOC(=O)C1C(=O)C=C(C)C(C(=O)OCC)C1c1ccc(OC)cc1 (stereo not drawn)	-3%	7.8	-0.2%	3	-10	1%	1%
Cc1ccc(C2=NOC(=O)/C2=C\c2ccc(C)o2)cc1	40µM*	?	.	-6	6	-28%[15.4 µM]	-9%
COC(=O)c1oc2ccc(OC)cc2c1N	5%	-0.5	16µM*	-5	22	-24%	11%
COc1ccc(OC)c2sc(NC(=O)C(C)C)nc12	-20%	-3.7	0.9%	-4	29	19%	-2%
CCCc1nnc(NC(=O)CCC(=O)N2CCN(C3CCCC3)CC2)s1	12%	0.5	-1.6%	1	-6	-2%	16%
Cc1cc(C)c2c(N)c(C(=O)Nc3ccccc3F)sc2n1	2%	-2.6	4.2%	-2	4	24%	?
O=S(=O)(c1ccc(Br)s1)N1CCN(Cc2ccc3c(c2)OCO3)CC1	13%	3.4	0.0%	-6	3	-51%[inhibitor]	-2%
O=C(NCC(c1ccco1)N1CCN(c2ccccc2F)CC1)c1ccc2c(c1)OCO2 (stereo not drawn)	.	.	-2.4%	5	-21	-4%	3%
COC(=O)[C@@]1(Cc2ccc(F)cc2)[C@H]2c3cc(C(=O)N4CCCC4)n(CCCNc4ncc(C(F)(F)F)cc4Cl)c3C[C@H]2CN1C(=O)c1ccccc1	4%&11%	9.0&8.2	-6.4%	-18	23	.	-4%
Cn1ccsc1=NC(=O)c1ccc(Cl)cc1	-1%	2.5	-0.1%	-1	2	8%[15.4 µM]	-5%
Cc1nnc(C)n1/N=C/c1cc(Br)cc(Br)c1O	-10%	?	1.6%	0	1	14%	-26%
COc1cc(COC(=O)c2cnc(C)cn2)c(OC)cc1Br	-2%	-0.5	.	-2	2	4%[15.4 µM]	-1%
NNC(=O)c1ccc(Cn2cc(Br)c(N)n2)cc1	12%	-0.9	-7.5%	0	-12	-7%[15.4 µM]	-5%
O=C(CC12CC3CC(CC(Br)(C3)C1)C2)Nc1cccc(S(=O)(=O)NC2=NCCC2)c1	2%	-1.1	-1.6%	-6	9	?	-11%
COC(=O)CCCCCCCCC(O)CN1CCCCC1 (stereo not drawn)	-2%	4.1	1.5%	3	-13	-5%	-9%
O=C(COc1ccc(Br)cc1Br)NC1CCCC1	2%	6.2	-5.1%	-14	19	-62%[inhibitor]	-3%
COc1ccc(NC(=O)COC(=O)c2ccc(-n3cnnn3)cc2)c([N+](=O)[O-])c1	.	.	1.5%	-2	5	1%	-4%
COc1ccc(S(=O)(=O)N2CCN(C)CC2)cc1C(=O)Nc1ccccc1	7%	-4.6	.	-11	2	?	7%
COc1cccc(C2=CC(c3cccc(OC)c3OC(F)F)n3nnnc3N2)c1 (stereo not drawn)	-16%	8.1	0.7%	0	-6	?	-17%
CCOc1ccc(NC(=O)C[n+]2ccccc2)cc1	-6%	-1.1	-2.5%	-17	-4	8%	7%
CC(=O)Nc1ccc(NC(=O)C2CCN(S(=O)(=O)c3ccc4c(c3)OCCO4)CC2)cc1	.	.	0.3%	3	-2	0%	12%
O=C(COC(=O)C1CCC1)Nc1cc(S(=O)(=O)N2CCOCC2)ccc1Cl	.	.	-1.6%	-4	.	?	.
O=C(Cn1cccc1C(=O)c1ccccc1)NCc1ccccc1Cl	6%	.	0.0%&-0.1%	9	-11	30%	1%
Cc1cc(C)c2[nH]c(O)c(N=Nc3ccc(C(=O)O)cc3)c2c1	10%	2.4	.	-20	-8	-21%	-21%
Cc1cc([N+](=O)[O-])ccc1NC(=O)c1cncc(Br)c1	9%	5.6	-1.4%	12	-2	-4%	6%
O=C(COC(=O)CCc1nc2ccccc2s1)NCc1ccco1	23%	-1.4	-2.2%	-2	-8	18%[15.4 µM]	7%
COc1ccc(/C=C/C(=O)NC(=S)NNC(=O)c2cccs2)cc1	-8%	0.5	.	-10	3	-28%	16%
C=CCn1cnc2c(nnn2-c2ccc(C)c(Cl)c2)c1=O	18%	3.1	.	-8	1	-4%[15.4 µM]	6%
CN(c1ccccc1)S(=O)(=O)c1ccc(Cl)c(C(=O)OCC(=O)NCc2ccco2)c1	-25%	5.9	2.2%	0	4	-32%[inhibitor]	-27%
C=C1CCN([C@H](C(=O)NCc2cc(OC)c(OC)c(OC)c2)C(C)C)S(=O)(=O)c2ccccc21	8%	1.1	0.9%	1	9	.	-5%
C=CCc1ccc(OCCCCN2CCC(C)CC2)c(OC)c1	-16%	-0.3	-2.9%	-11	13	-18%	13%
Cc1nc2sc(C(c3ccc(C(C)C)cc3)N3CCN(CCO)CC3)c(O)n2n1 (stereo not drawn)	5%	0.9	0.5%	4	9	-72%[inhibitor]	6%
S=c1[nH]nc(-c2ccccn2)n1/N=C/c1ccc(Br)s1	12%	3.1	0.7%	7	5	-12%[15.4 µM]	?
O=C(O)c1ccccc1N(Cc1ccccc1)C(=O)COc1ccccc1	19%	6.7	-1.1%	.	0	-10%	-12%
CCNC(=O)c1ccccc1NC(=O)C1CC(=O)N(C(C)C)C1 (stereo not drawn)	13%	0.5	0.5%	6	-8	13%	8%
CC(=O)N1CCc2c(sc(NC(=O)C3COc4ccccc4O3)c2C(N)=O)C1 (stereo not drawn)	32µM*	.	-9.1%	-9	3	-17%	?

Sorted by molar mass (ascending): some entries from above
SMILES	Sfp inh	Menin-MLL FL inh	ClpP mod	CtBP-E1A inh	TRPV1 potentiator	gsp agonist	gsp antag
C=CCn1cnc2c(nnn2-c2ccc(C)c(Cl)c2)c1=O	18%	3.1	.	-8	1	-4%[15.4 µM]	6%
S=c1[nH]nc(-c2ccccn2)n1/N=C/c1ccc(Br)s1	12%	3.1	0.7%	7	5	-12%[15.4 µM]	?
CN(c1ccccc1)S(=O)(=O)c1ccc(Cl)c(C(=O)OCC(=O)NCc2ccco2)c1	-25%	5.9	2.2%	0	4	-32%[inhibitor]	-27%

(further entries)
SMILES	Sfp inh	Menin-MLL FL inh	ClpP mod	CtBP-E1A inh	TRPV1 potentiator	gsp agonist	gsp antag
Cc1ccccc1C(=O)Nc1ccc(-c2nc3ccc(C(=O)c4ccccc4)cc3[nH]2)cc1	16%	3.3	?	4	2	-31%[inhibitor]	-6%
Cc1nc(NC(=O)c2ccc3c(c2)OCCO3)ccc1Br	-1%	.	-2.7%	0	-10	-2%	-27%
O=C(NCc1cccnc1)/C(=C/c1ccco1)NC(=O)c1ccccc1	7%	1.2	-1.7%	-6	3	-1%	4%
CC(=O)Nc1ccc(S(=O)(=O)c2ccc(C)cc2)cc1	7%	-0.7	.	3	6	-25%	12%
CN(C(=O)c1ccc2c(c1)CCN2S(C)(=O)=O)c1ccccc1	9%	-0.5	.	5	4	0%	-1%
O=C(NCCc1ccccc1)c1cccc(NC(=O)C2CC2)c1	.	.	-0.5%	-6	.	.	-2%
Cc1ccc(S(=O)(=O)N2CCCC2C(=O)OCc2ccccc2)cc1 (stereo not drawn)	7%	-2.4	-1.3%	25	-4	?	-18%
COc1ccc(NS(=O)(=O)c2ccc(NC(=O)C3CCCO3)cc2)cc1 (stereo not drawn)	-4%	-1.5	-1.0%	1	-9	5%	8%
Cc1ccc(O)c(NC(=S)NC(=O)C(C)C)c1	-12%	0.3	.	-6	0	1%[15.4 µM]	8%
CN(C1(C)CCS(=O)(=O)C1)S(=O)(=O)c1cccc([N+](=O)[O-])c1 (stereo not drawn)	.	.	.	7	6	9%[15.4 µM]	2%
COC(=O)/C(=C/c1c[nH]c2ccccc12)NC(C)=O	6%	-0.2	.	8	4	-5%[15.4 µM]	8%
CC(=O)c1ccc(N2CCN(S(=O)(=O)c3ccc4c5c3CC(=O)N5CC(C)S4)CC2)cc1 (stereo not drawn)	-7%	-12	-2.8%	.	-1	-15%	-19%
COc1ccccc1Oc1ccc(S(=O)(=O)N2CCOCC2)cc1S(=O)(=O)N1CCOCC1	4%	-4.1	-9.0%	4	-4	-41%[inhibitor]	-7%
CCCC1NC(=S)N(C2CCCCC2)C1=O (stereo not drawn)	6%	9.0	1.3%	0	-22	-25%	4%
CCCNC(=O)c1nnsc1S(=O)c1ccc(Cl)cc1 (stereo not drawn)	20µM*	-2.3	.	-1	-2	14%[15.4 µM]	?
C=CCN1C(=O)CSC1=Nc1cccc(O)c1	2%	3.4	0.4%	5	-12	-4%	-2%
O=C(O)c1cncc(Br)c1	14%	3.9	.	5	15	?	12%
Cc1nc2ccccc2c(=O)n1/N=C/c1ccccc1Cl	1%	-4.4	.	-6	-8	-44%[inhibitor]	-8%
CCN(CC)S(=O)(=O)c1ccc(NC(=O)CO/N=C(\N)c2ccccc2)cc1	.	.	-1.1%	-1	9	-39%[inhibitor]	-8%
O=C(NCc1ccco1)C(=O)NCC1OCCN1C(=O)c1ccc(Cl)cc1 (stereo not drawn)	-3%	0.9	.	-1	3	?	12%
O=C(O)c1nn(-c2ccccc2)c(-c2ccccc2)c1C(=O)c1ccccc1	11%	0.1	-9.5%	-25	10	-9%[15.4 µM]	-2%
Cc1ccc(S(=O)(=O)N2CC(O)CC2C(=O)Nc2ccc3c(c2)CCC3)cc1 (stereo not drawn)	7%	3.6	3.5%	-1	-16	-1%	?
Cc1cc(C)cc(N(CCC(=O)O)S(=O)(=O)c2ccc3ccccc3c2)c1	-8%	3.0	-5.2%	-12	22	?	4%
C=CCOC(=O)CCCC(=O)NC1CCCCC1	-3%	3.2	0.9%	-2	9	17%	4%
S=C(Nc1ccc(Cl)cc1)NN1CCOCC1	1%	3.3	-8.7%	-9	9	10%	13%
OC(CN1CCN(Cc2ccccc2)CC1)c1ccc(Br)cc1 (stereo not drawn)	.	.	1.4%	0	.	8%[15.4 µM]	-3%
CCOC(=O)C(CCC(=O)O)(CCC(C)C)c1csc(N)n1 (stereo not drawn)	16%	4.8	1.1%	4	-13	-5%	5%
Cc1cc(Br)ccc1SCC(=O)OCC(=O)NC1CC1	15%	-0.2	.	-5	-11	-26%	-12%
N=P(N1CCOCC1)(N1CCOCC1)C12CC3CC(CC(C3)C1)C2	11%	-2.6	-0.4%	7	9	1%	-1%
